GIRK2 act: GIRK2 channel activation; P48051; HEK293-GIRK2 thallium flux, Thallos fluorescence; calls only for hits at 25 µM; 0.05% of 63,000 active; AID 1259325;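 active means among the strongest 0.2% of first-round signals and kept after retests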;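 further: first round at about 10 µM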
Target sequence (P48051 whole entry, looked up): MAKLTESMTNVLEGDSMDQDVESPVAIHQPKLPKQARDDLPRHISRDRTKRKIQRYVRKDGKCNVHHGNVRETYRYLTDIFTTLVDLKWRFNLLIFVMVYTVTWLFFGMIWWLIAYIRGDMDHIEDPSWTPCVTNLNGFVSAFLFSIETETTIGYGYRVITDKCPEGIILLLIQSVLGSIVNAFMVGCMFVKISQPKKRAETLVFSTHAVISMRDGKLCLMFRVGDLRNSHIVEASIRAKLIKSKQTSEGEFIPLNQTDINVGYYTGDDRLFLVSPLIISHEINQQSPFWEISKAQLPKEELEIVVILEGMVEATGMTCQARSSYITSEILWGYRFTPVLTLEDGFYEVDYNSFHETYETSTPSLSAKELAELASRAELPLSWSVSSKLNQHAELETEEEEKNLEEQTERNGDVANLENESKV
Calls only; i = inactive. Some of the compounds tested, so the mix of outcomes need not match the whole.

molecule	GIRK2 act
CCc1ccc(N2C(=O)CC(C3CCCC=C3N3CCOCC3)C2=O)cc1 (centres undefined)	i
COc1ccccc1-c1ccc(N2CCN(S(=O)(=O)c3cccc(F)c3)CC2)nn1	i
NC(=O)c1nnn(-c2ccc(NC(=O)c3ccc(Cl)s3)cc2)n1	i
COc1cccc(CNC(=O)CCCCCn2c(=S)[nH]c3cc4c(cc3c2=O)OCO4)c1	i
CCNC(=O)NCC1CCN(C)CC1	i
CCC(C)n1c(C)cn2c3c(=O)n(CCN4CCOCC4)c(=O)n(C)c3nc12 (centres undefined)	i
COc1cccc(CC(=O)NC2CCN(C(=O)c3cn(-c4ccccc4)nn3)CC2)c1	i
Cc1[nH]c(=O)n(C)c(=O)c1CCC(=O)Nc1cc(C(F)(F)F)cc(C(F)(F)F)c1	i

Shown as labelled records: part of the list above.
canonical_smiles: CCNC(=O)NCC1CCN(C)CC1
  GIRK2 act: i

canonical_smiles: CCC(C)n1c(C)cn2c3c(=O)n(CCN4CCOCC4)c(=O)n(C)c3nc12 (centres undefined)
  GIRK2 act: i

canonical_smiles: COc1cccc(CC(=O)NC2CCN(C(=O)c3cn(-c4ccccc4)nn3)CC2)c1
  GIRK2 act: i

canonical_smiles: Cc1[nH]c(=O)n(C)c(=O)c1CCC(=O)Nc1cc(C(F)(F)F)cc(C(F)(F)F)c1
  GIRK2 act: i

(continued)
molecule	GIRK2 act
COc1cc(C(=O)NC2CCCC2)cc(OC)c1OC	i
COc1cccc2c1OC(C)C(=O)N(c1ccccc1Cl)C2 (centres undefined)	i
CN1CCC(CNC(=O)C2CCCCC2)CC1	i
CCOc1ccc(N(C)S(=O)(=O)c2ccsc2C(=O)Nc2ccc(C)c(C)c2)cc1	i
Cc1c(NC(=O)Cn2nc(-c3cccs3)ccc2=O)c(=O)n(-c2ccccc2)n1C	i
CN1CCN(Cc2cc(=O)oc3ccc(O)cc23)CC1	i
CCOc1cc(C(NC(=O)C(C)(C)C)NC(=O)C(C)(C)C)ccc1OC	i
CN(c1ccc(Cl)cc1)S(=O)(=O)c1ccsc1C(=O)NC1CCCCC1	i

In another format: 2 of the compounds above
GIRK2 act | Molecule
i | CCOc1ccc(N(C)S(=O)(=O)c2ccsc2C(=O)Nc2ccc(C)c(C)c2)cc1
i | NC(=O)c1nnn(-c2ccc(NC(=O)c3ccc(Cl)s3)cc2)n1

Next records follow:
molecule	GIRK2 act
CCCCC[C@H](O)/C=C/[C@@H]1[C@@H](C/C=C\CCCC(=O)NCC)[C@@H](O)C[C@H]1O	i
O=C(CCn1ccc(=O)[nH]c1=O)N1CCN(C(=O)C2CC2c2ccccc2)CC1 (centres undefined)	i
Nc1nsc(-c2ccccc2Cl)n1	i
COc1ccc(-n2c(C)nc3ccc(NC(=O)Nc4cc(F)ccc4F)cc3c2=O)cc1	i
CC(C)Cn1c(=O)[nH]c2c(C(=O)N3CCC4(CC3)OCCO4)snc2c1=O	i
Cc1oc2cc(OCC#N)ccc2c(=O)c1-c1ccc(Br)cc1	i
COC1(CNC(=O)C2(c3ccccc3)CCOCC2)CCSC1 (centres undefined)	i
Cn1nc(-c2ccc(F)cc2)cc1C(=O)Nc1ccc2c(c1)C(=O)N1CCCCC1CCO2 (centres undefined)	i

The list continues.
molecule	GIRK2 act
CN(C)C(CNS(=O)(=O)c1ccc2c(c1)OCCO2)c1cn(C)c2ccccc12 (centres undefined)	i
CC(=O)c1cccc(NC(=O)c2ccc(C(C)(C)C)cc2)c1	i
Cn1nc(-c2ccc(F)cc2)cc1C(=O)NCc1cnn2ccccc12	i
O=C(c1nc2ccccc2s1)N1CCN(C(=O)C2CC2c2ccccc2)CC1 (centres undefined)	i
O=C(CCCn1nnc2ccccc2c1=O)Nc1ccccc1Cl	i
O=C(CN1CCC(COCc2ccc(Cl)cc2)CC1)Nc1ccccc1	i
O=C(NCC1CCN(C(=O)/C=C/c2ccco2)CC1)c1cc(C2CC2)on1	i
COc1cccc(NC(=O)Cn2nc3c(N4CCCC(C)C4)nccn3c2=O)c1 (centres undefined)	i

(further entries)
molecule	GIRK2 act
COc1ccc(-c2c(C)oc3cc(OC(=O)c4cccs4)ccc3c2=O)cc1	i
COCC(=O)NCC1(c2ccccc2)CCOCC1	i
CCOCCn1c(=O)c2c(nc3n(C4CCCCC4)c(C)cn23)n(C)c1=O	i
COc1ccc(NC(=O)c2ccc3nnc(SCC(=O)Nc4cccc(OC)c4)n3c2)cc1	i
O=C(CNC(=O)c1ccccc1)NCCc1ccsc1	i
COc1cccc(CNc2nccn(-c3ccc4c(c3)OCO4)c2=O)c1	i
COc1ccc(CN2C(=O)C(O)(CC(C)=O)c3cc(Br)ccc32)cc1 (centres undefined)	i
O=C(CSc1nnc(CCc2nc3ccccc3[nH]2)o1)NCc1ccc2c(c1)OCO2	i

The list goes on.
molecule	GIRK2 act
CCSc1ccc(C(=O)N(CCN2CCOCC2)c2nc3ccc(OC)cc3s2)cc1	i
O=C(Cn1c(=O)oc2ccccc21)N1CCC(CSCc2ccco2)CC1	i
COc1ccc(C(=O)N2CCN(c3ncnc4c3nnn4-c3ccc(C)cc3)CC2)cc1OC	i
Cn1c(N)c(C(=O)NC2CCCCC2)c2nc3ccccc3nc21	i
Cc1ccc(-c2nc3c(c(=O)n2CC(=O)NC2CCCCC2)CCN(Cc2ccccc2)C3)cc1	i
CCCCc1ccc(NC(=O)c2coc(NC(=O)c3cc(C)on3)n2)cc1	i
COc1ccc(-n2nnc(C(=O)Nc3nc(C)c(C)s3)n2)cc1	i
CC(C)Oc1ccc(C(=O)NCCCS(=O)(=O)N2CCN(c3ccccn3)CC2)cc1	i

(cont.)
SMILES	GIRK2 act
COc1cccc(CSc2nc(CC(=O)Nc3cc(Cl)ccc3OC)cc(=O)[nH]2)c1	i
C=CCOCC(O)Cn1c(NCCN2CCOCC2)nc2c1c(=O)[nH]c(=O)n2C (centres undefined)	i
O=C(Nc1ccncc1)c1ccc(CNS(=O)(=O)c2ccccc2F)cc1	i
COCCNC(=O)NC(C)Cc1ccco1 (centres undefined)	i
CSc1ccccc1NC(=O)C(=O)NCC(C)(O)c1ccco1 (centres undefined)	i
COc1cc(S(=O)(=O)NCc2ccco2)c(OC)cc1Cl	i
Cc1nc(C)c(-c2nnc(NC(=O)C3=COCCO3)o2)s1	i
O=C(Cn1nc(-c2ccccc2)c2sc(N3CCCCC3)nc2c1=O)OCc1ccccc1	i
COc1nn(C)cc1C(=O)Nc1nnc(SCC(=O)N2CCCc3ccccc32)s1	i
CCc1ccc(NC(=O)CSc2cc(-c3nc(C)no3)ccn2)cc1	i
O=C(NCCNc1cc(Nc2ccccn2)ncn1)c1ccc(F)cc1Cl	i
COc1nn(C)cc1C(=O)N1CCC(CSCc2ccco2)CC1	i

In another format: results already given.
C=CCOCC(O)Cn1c(NCCN2CCOCC2)nc2c1c(=O)[nH]c(=O)n2C (centres undefined)
  GIRK2 act: i

O=C(Nc1ccncc1)c1ccc(CNS(=O)(=O)c2ccccc2F)cc1
  GIRK2 act: i

COCCNC(=O)NC(C)Cc1ccco1 (centres undefined)
  GIRK2 act: i

CSc1ccccc1NC(=O)C(=O)NCC(C)(O)c1ccco1 (centres undefined)
  GIRK2 act: i

(listing goes on)
SMILES	GIRK2 act
O=C(NNC(=O)c1ccc(=O)n(Cc2ccc(Cl)cc2)c1)c1ccc2ccccc2c1	i
O=C1/C(=C/c2ccncc2)Oc2cc(OCc3ccc([N+](=O)[O-])cc3)ccc21	i
CC(C)ON(CC(=O)NO)S(=O)(=O)c1ccc(-c2ccccc2)cc1	i
Clc1ccc(Cc2noc(Cc3nc(-c4cccs4)cs3)n2)cc1	i
O=c1cc(-c2ccc(F)cc2)ncn1CCNS(=O)(=O)c1ccc2c(c1)OCCO2	i
CC(C)(C)c1ccc(S(=O)(=O)NCc2ccc(C(=O)N3CCCC3)cc2)cc1	i
CC(C)=CC(=O)OC1c2c(ccc3ccc(=O)oc23)OC(C)(C)C1O (centres undefined)	i
CC(Cn1nc(-c2ccco2)ccc1=O)C(=O)NCCc1ccc(S(N)(=O)=O)cc1 (centres undefined)	i
Cc1cc(OCC(O)Cn2cnc3ccccc32)ccc1Cl (centres undefined)	i
COc1ccc(OC)c(/C=C2\Oc3c(ccc4c3CN(CC3CCCO3)CO4)C2=O)c1 (centres undefined)	i
COC(=O)c1ccsc1NC(=O)c1cc(C)no1	i
O=C(Nc1ccc(N2CCCC2=O)cc1)NC1CC1	i

(more compounds)
SMILES	GIRK2 act
CCCc1ccc(C(=O)NCC(C)(O)CSC)cc1 (centres undefined)	i
Cc1nn(-c2nc3c(c(=O)n(CC(N)=O)c(=O)n3C)n2C)c(C)c1C	i
CC(=O)c1ccc(NC(=O)C(C)Cn2cncn2)cc1 (centres undefined)	i
COc1cc(OC)cc(C(=O)Nc2cc(-c3cccs3)nn2-c2nc(-c3ccccc3)cc(=O)[nH]2)c1	i
O=C(c1ccc(Cl)s1)N1CCN(CC(O)c2cccs2)CC1 (centres undefined)	i
O=C(c1ccncc1)N1CCC(CNS(=O)(=O)CCc2ccccc2)CC1	i
O=C(N1CCCCC1CCO)C1(c2ccc(F)cc2)CC1 (centres undefined)	i
COc1ccccc1NC(=O)CN1C(=O)C2(SCC(=O)N2c2cccc(Cl)c2)c2ccccc21 (centres undefined)	i
O=C1CN(C(=O)c2cc(-c3ccco3)on2)c2ccccc2N1	i
COc1ccccc1-c1nnc(NC(=O)c2cccc(OC)c2OC)o1	i
C=CCc1cccc2cc(C(=O)N3CCN(c4ccccc4F)CC3)c(=O)oc12	i
Cc1noc(C)c1CN1CCN(C(=O)CCc2ccccc2)CC1	i

Next results:
SMILES	GIRK2 act
Cc1c(Cl)cccc1NC(=O)Cn1cccc(S(=O)(=O)N2CCCCC2)c1=O	i
Cc1noc(CNC(=O)C2CC2)n1	i
O=C(CN1C(=O)CCC1=O)Nc1ccc2c(c1)C(=O)N1CCCCC1CCO2 (centres undefined)	i
Cn1c(=O)[nH]c(=O)c2c1nc(N1CCN(c3ccc(F)cc3)CC1)n2Cc1ccccc1	i
CCCCn1c(=O)c2ccccc2n(Cc2nc(-c3ccc(F)c(Br)c3)no2)c1=O	i
O=C(/C=C/c1ccc2c(c1)OCO2)N1CCC(Oc2ccccn2)CC1	i
O=C(Nc1nccs1)C1CCN(C(=O)c2cccc(-n3cnnn3)c2)CC1	i
COCCNC(=O)Cc1ccc(NS(=O)(=O)c2c(C)noc2C)cc1	i
CN(C1CCCCC1)S(=O)(=O)c1ccc(I)cc1	i
COc1ccc(S(=O)(=O)c2cnc3ccc(OC)cc3c2N2CCCC2)cc1	i
Cn1c(CN2CCN(CC(=O)NCCc3ccccc3)CC2)nc2ccccc21	i
O=C(c1ccc2c(c1)OCO2)N1CCN(CCn2cccn2)CC1	i

(further entries)
SMILES	GIRK2 act
Cc1nnc(CNC(=O)Cc2csc(NC(=O)c3ccccc3)n2)o1	i
COc1cc(Br)cc2cc(C(=O)N3CCN(c4ccccc4)CC3)c(=O)oc12	i
Cc1ccccc1-c1nc(CN2N=C(c3ccccc3)c3ccccc3S2(=O)=O)c(C)o1	i
CCCn1cc(C(=O)Nc2ccc(Br)c(C)c2)c(=O)c2ccc(C)nc21	i
Cn1c(=O)[nH]c(=O)c2c1nc(N1CCN(CC(N)=O)CC1)n2Cc1ccccc1	i
CCCCN(CCCC)C(=O)CN1C(=O)c2ccccc2S1(=O)=O	i
CSc1nccn2nc(-c3ccc(F)cc3)cc12	i
COc1cccc(NC(=O)CN2N=NC3C(=O)N(c4ccc(OC)c(Cl)c4)C(=O)C32)c1 (centres undefined)	i
COc1ccc(-n2nnc(C(=O)NC3CCCC3)c2C2CC2)cc1	i
Cc1ccc(Cl)c2sc(NC(=O)c3cnccn3)nc12	i
COC(=O)C1=CO[C@@H](O[C@@H]2O[C@H](CO)[C@@H](O)[C@H](O)[C@H]2O)[C@H]2[C@@H]1C=C[C@@]21C=C([C@H](C)O)C(=O)O1	i
O=C(/C=C/c1ccccc1Cl)N1CCC(c2nnc(-c3ccc(F)cc3)o2)CC1	i

The list continues:
SMILES	GIRK2 act
COc1ccc(NC(=O)CSc2nccn2-c2cccc(C(=O)NCc3ccco3)c2)c(OC)c1	i
COc1ccc(CCNC(=O)C(=O)c2cn(CC(=O)N3CCCCC3)c3ccccc23)cc1	i
COc1ccc(N2CCN(C(c3cccs3)C(C)NS(=O)(=O)c3ccc(Cl)cc3)CC2)cc1 (centres undefined)	i
CSCC(C)(O)CNC(=O)C(=O)NC1CC1 (centres undefined)	i
Cc1nc(-c2ccccc2Cl)sc1CNC(=O)c1ccccc1C(F)(F)F	i
N#Cc1c(C(F)(F)F)cc(-c2ccccc2)nc1SCCC(N)=O	i
COc1ccccc1NC(=O)N1CCC(CNC(=O)C(=O)Nc2cccc(N3CCCC3=O)c2)CC1	i
CN(C)c1cccc(-c2nc(-c3cn(Cc4ccc(F)cc4)nn3)no2)c1	i
NC(=O)c1oc2ccccc2c1NC(=O)C1CCN(S(=O)(=O)c2ccc(Cl)cc2)CC1	i
COc1cccc(-c2nc(CSc3nc4ccccc4n4c(C(C)C)nnc34)c(C)o2)c1OC	i
COc1cccc2cc(C(=O)N3CCn4c3nc3ccccc34)oc12	i
CC1CN(c2ccc(F)cc2)c2nc3c(c(=O)n(CC(=O)O)c(=O)n3C)n2C1 (centres undefined)	i

More structures:
SMILES	GIRK2 act
O=C(NCC1CCN(C(=O)Oc2ccccc2)CC1)c1cccs1	i
Cc1c(-c2nnc(Cc3ccccc3)o2)nnn1-c1ccc(C(C)C)cc1	i
COc1ccc(-c2cc(C(=O)N3CCC(Cc4ccccc4)CC3)no2)cc1	i
CC(C)c1cnc2c(c1SCc1cccc(C(F)(F)F)c1)c(=O)n(C)c(=O)n2C	i
Cc1nnc(NC(=O)Cn2nc(C(=O)N3CCOCC3)cc2-c2cccs2)s1	i
COCCCNc1nc2c(c(=O)[nH]c(=O)n2C)n1CC(C)O (centres undefined)	i
COc1ccc(CNC(=O)c2nnn(Cc3nc(-c4cccc(Cl)c4)oc3C)c2N)cc1	i
c1ccc(-c2cc(NCc3cccs3)ncn2)cc1	i
CCN(CC)C(=O)Cc1c(C)n(C(=O)c2ccc(Cl)cc2)c2ccc(OC)cc12	i
Cc1[nH]nc(S(=O)(=O)N2CCOCC2)c1C(=O)O	i

Screens from PubChem.
